Screening data: PubChem BioAssay, Southern Research Institute
motility: Vibrio cholerae motility inhibitors, OD read-out (AID 588778); Vibrio cholerae motility, OD read-out; higher % means a stronger effect; test concentration not given here; primary cut-off and reference of the scale not given here; strong numbers were not always called active; one-dose inhibition, %; IC50 in µg/mL for titrated hits; 10,000 tested, under 10 active; in the data active means confirmed in a dose series; inconclusive means primary hit not retested
motility viability: second read-out of motility, no call of its own (marks repeat the call); inhibition, %; measured here: bacterial viability at 10 ug/mL;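 higher means fewer living bacteria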
Starred values were filed as active, the others as inactive; ? = inconclusive; / = not tested or not shown. An excerpt; count on the stated rates, not on these rows.

Compound,motility,motility viability
Cc1cc(C)c(C)c(OCCCSC#N)c1,-11.4%,-6.5
Cc1nnc(NC(=O)CCn2cnc3ccccc3c2=O)s1,0.9%,3.4
Cc1cc(=O)oc2cc(NC(=S)N3CCN(C(=O)C4CCCO4)CC3)ccc12 (stereo unspecified),-5.3%,-4.1
O=C(Nc1ccc([N+](=O)[O-])c(NC(=O)C(F)(F)F)c1)C(F)(F)F,-18.1%,-2.9
Cc1ccc(CN(Cc2ccco2)C(=S)NCC(=O)O)cc1,3.7%,-0.4
NC(=O)C1CCN(C(=S)c2ccccc2)CC1,-1.9%,-0.9
Cc1cc(C)nc(SCC(=O)N=Nc2c(O)[nH]c3ccccc23)n1,0.3%,2.2
Nc1ccc(C(=O)NCc2ccccc2)cc1,16.4%,-0.2
COC(=O)Cc1c(C)c2ccc(OCc3ccc(Br)cc3F)c(C)c2oc1=O,-5.4%,-3.8
O=C(CN1C(=O)c2ccccc2S1(=O)=O)Nc1ccccc1C(=O)NCc1ccco1,4.6%,-4.6
Cc1cc2c(s1)CCCCC(=O)N2,-1.9%,-3.0
Cn1c(=O)c2ncn(CC(=O)Nc3ccc4oc(-c5cc(I)ccc5Cl)nc4c3)c2n(C)c1=O,18.6%,4.1
Cc1ccc(S(=O)(=O)Nc2ccc(C(=O)Nc3nccs3)cc2)cc1,4.8%,-2.5
Nc1cc(=O)[nH]c(=S)n1-c1ccccc1,-5.9%,6.3
CCc1ccc(NC(=O)c2ccnc(C(C)(C)C)c2)cc1,5.5%,-1.8
O=C(Nc1ccc2oc(-c3ccccc3Cl)nc2c1)c1ccc(N2CCCC2)c([N+](=O)[O-])c1,4.6%,1.6
O=C(COc1ccccc1C(=O)NCCNc1ccc([N+](=O)[O-])cc1)NCc1ccco1,-9.8%,-1.4
O=C(NCc1ccccn1)C(=O)N1CCCC1,11.9%,-6.5
O=C(O)c1cccc(-c2ccc(CO)o2)c1,-4.2%,0.6
COc1ccc(-c2nnnn2-c2ccccc2OC)cc1,-9.3%,2.1
CN(C)C(=O)c1ccccc1C(=O)N(C)C,-3.3%,34.3
COc1cccc(CNC(=S)NC2CC2)c1,7.0%,0.1
CCOC(=O)CNc1ncnc(N)c1[N+](=O)[O-],-9.6%,-3.9
Cc1cc(CSc2ccccc2)ccc1NS(C)(=O)=O,19.5%,-5.8
FC(F)(F)c1ccccc1NC(=S)NCc1cccs1,-6.2%,5.8
CCCCOC(=O)Nc1ccc(C(=O)OC)cc1,22.6%,2.2
O=C(O)c1cccc(CSc2nnc(-c3ccc(Cl)cc3)o2)c1,23.4%,5.0
CC(NC(=S)NCCN1CCOCC1)C12CC3CC(CC(C3)C1)C2 (stereo unspecified),0.9%,0.9
CC1CC(CCC(=O)NC(=S)Nc2ccc(Cl)cn2)C(=O)O1 (stereo unspecified),13.4%,8.9
CC(Oc1ccc(Cl)cc1Cl)C(=O)NC(=S)Nc1cccc(NC(=O)c2cccs2)c1 (stereo unspecified),-2.4%,-2.8
Cc1ccc(SCC(=O)N2N=CCC2c2ccccc2)cc1 (stereo unspecified),-7.9%,-1.4
Cc1cccc(C(=O)Nc2ccc(I)cc2C(=O)N2CCCC2)c1,-0.8%,-1.4
O=C1CC(=O)N(Cc2ccco2)C(=O)N1,17.6%,3.7
COc1cc(C(=O)Oc2ccc(Br)c3ccccc23)cc(OC)c1OC,0.4%,-3.7
Cc1cc(C)c(NC(=O)c2ccc(F)cc2)c([N+](=O)[O-])c1,0.5%,-0.4
N#CC1=C(N)Oc2n[nH]c(-c3cccnc3)c2C1c1cc(F)ccc1F (stereo unspecified),4.0%,0.5
O=C(CSc1nnc(-c2ccccc2)c(-c2ccccc2)n1)C1CC1,1.6%,5.4
O=C(c1cn(Cc2ccc(Cl)c(Cl)c2)c2ccccc12)C1CC1,-11.6%,1.4
Cc1cc(C)nc(SCCC(=O)N2CCCCC2)n1,10.2%,-0.9
CCS(=O)(=O)NCCC(c1ccccc1)c1ccccc1,11.3%,-1.2
O=C(COc1cccc2ccccc12)Oc1ccc(Cl)cc1Br,3.3%,-0.9
O=C(O)C1CC=C(Cl)CC1C(=O)Nc1ccc([N+](=O)[O-])cc1 (stereo unspecified),-1.2%,-5.2
Cc1c(F)cccc1NC(=S)Nc1cccc2ccccc12,2.3%,-4.1
COc1ccc(NC(=O)Nc2ccc(F)cc2F)c([N+](=O)[O-])c1,-8.8%,-15.5
Cc1nn(S(=O)(=O)c2cccs2)c(C)c1Sc1ccc([N+](=O)[O-])cc1,-2.3%,-3.7
CS(=O)(=O)N(CC(=O)N1CCN(Cc2ccccc2)CC1)C1CCCCC1,-6.8%,-5.2
CC(NC(=O)Nc1ccc(F)cc1F)c1ccncc1 (stereo unspecified),-0.5%,-2.3
O=C(NC(Nc1cccc(C(F)(F)F)c1)C(=O)c1ccccc1)c1ccc(Cl)cc1 (stereo unspecified),-8.4%,-2.4
COc1cc(C(=O)n2cnc3ccccc32)c([N+](=O)[O-])cc1OC,-6.2%,1.7
CC(NC(=O)CCC(=O)Nc1ccccc1O)c1ccccc1 (stereo unspecified),5.1%,3.3
CN1CCN(C(=O)c2cc(Cl)cc(Cl)c2NC(=O)c2ccco2)CC1,-7.0%,-5.1
CCCCC(=O)Nc1ncc(Br)s1,2.9%,2.7
Clc1ccccc1Cn1nnc(-c2cccs2)n1,6.6%,2.2
Fc1ccccc1OCCN1CCc2ccccc2C1,28.9%,13.1
CCOC(=O)Cc1csc(NC(=O)CSc2nc(SC)ns2)n1,14.9%,6.8
CCCOc1ccc(CNC(=O)NCc2ccc(OC(C)C)cc2)cc1,?,/
COc1cc(C)c(S(=O)(=O)NCc2ccccn2)cc1C,-2.2%,-8.1
COc1cc(OC)c(OC)cc1CN1CCN(CC2CC3C=CC2C3)CC1 (stereo unspecified),-8.2%,0.7
O=C(Nc1ccc(N2CCCC2)c(Cl)c1)c1ccc2c(c1)OCO2,-14.5%,0.1
CC(C)C(NC(=O)Cc1ccc(-c2ccccc2)cc1)c1ccccc1 (stereo unspecified),4.7%,-7.0

Next part:
Compound,motility,motility viability
Cc1onc(-c2c(F)cccc2Cl)c1C(=O)NC(=S)Nc1ccccc1C(F)(F)F,-2.4%,-5.0
O=C1CC(N2CCC(c3nc4ccccc4[nH]3)CC2)C(=O)N1c1ccccc1Cl (stereo unspecified),-6.0%,-1.0
O=S1(=O)N=C(Nc2ccccn2)c2ccccc21,-19.7%,-2.2
NC(=O)c1conc1-c1ccccc1C(F)(F)F,12.3%,12.2
Clc1ccc(-c2noc(CNC3CCCCC3)n2)cc1,14.8%,2.9
Cc1cc(C(=O)CSc2ncn[nH]2)c(C)n1-c1cc(F)ccc1F,16.9%,-4.6
CCOC(=O)c1cnc(SCC(=O)N2CCC(C(N)=O)CC2)nc1N,0.1%,-1.7
CCS(=O)(=O)N1CCN(c2ccc([N+](=O)[O-])c(NCC3CCCO3)c2)CC1 (stereo unspecified),8.0%,0.2
C=CCn1c(SCC(=O)c2cc(OC)ccc2OC)nnc1-c1ccccn1,-18.0%,-9.7
Cc1cc(NC(=O)CSc2ccccn2)no1,-11.8%,-10.2
Cc1cc(NC(=O)Cc2nn(C)c(=O)c3ccccc23)no1,10.9%,3.9
O=c1[nH]c(N2CCOCC2)nc2ccccc12,4.4%,0.6
Cn1c(=O)c(Sc2ccccc2)c(Sc2ccccc2)c2ccccc21,-30.3%,-10.0
Cc1c(NC(=O)c2cnn3c2NC(c2ccco2)CC3C(F)(F)F)c(=O)n(-c2ccccc2)n1C (stereo unspecified),-2.9%,-6.1
O=C(CCNS(=O)(=O)c1ccc(Cl)cc1)N1CCN(c2ccccn2)CC1,8.6%,2.2
COc1ccc(C2C(Oc3ccc(Cl)cc3C)C(=O)N2c2cccc([N+](=O)[O-])c2)cc1OC (stereo unspecified),-13.2%,-8.2
COC(=O)c1ccc(Cl)c(NC(=O)c2ccccc2I)c1,4.6%,3.6
CC(C)S(=O)(=O)c1ccc(COC(=O)c2cccc(-c3nnc(-c4ccccc4)o3)c2)cc1,-1.5%,-2.2
O=C(c1cccc(COCC(F)(F)C(F)F)c1)N1CCN(c2ccccc2)CC1,10.2%,-11.2
O=[N+]([O-])c1ccc(Oc2c(F)c(F)c(C(F)(F)F)c(F)c2F)cc1,4.3%,4.7
CN(C)CC(=O)Nc1ccccc1[N+](=O)[O-],-0.7%,-7.5
O=C(Nc1ccc(Cl)c(F)c1)C1C2C3CCC(C3)C12 (stereo unspecified),-18.5%,-9.6
Cc1cc(C(=O)NCC2(c3ccccc3)CCOCC2)oc1C,4.6%,0.7
CCOC(=O)N1CCC2(CC1)C(C#N)=C(N)Oc1c2c(C)nn1-c1cccc(Cl)c1,2.9%,-1.3
CCN(CC)Cc1c(O)ccc2c(C#N)c(C)n(-c3ccccc3)c12,18.1%,1.0
Cc1noc(COc2ccc(OCc3nc(C)no3)cc2)n1,-5.4%,-2.6
O=[N+]([O-])c1ccc(CSc2nnc3c4ccccc4n(Cc4ccccc4)c3n2)cc1,16.6%,-2.7
CC(=O)Nc1cccc(OCc2ccc(C(=O)c3ccccc3)cc2)c1,14.3%,6.3
O=C1CN(O)C(c2ccccc2)=c2cc(Br)ccc2=N1,-3.7%,-5.5
O=c1cc(-c2ccccc2)nc(-c2ccccc2)o1,?,/

Exported with two lines to a compound: part of the list above.
Order of results: motility | motility viability
- CC1CC(CCC(=O)NC(=S)Nc2ccc(Cl)cn2)C(=O)O1 (stereo unspecified)
  13.4% | 8.9
- CC(Oc1ccc(Cl)cc1Cl)C(=O)NC(=S)Nc1cccc(NC(=O)c2cccs2)c1 (stereo unspecified)
  -2.4% | -2.8
- Cc1ccc(SCC(=O)N2N=CCC2c2ccccc2)cc1 (stereo unspecified)
  -7.9% | -1.4

One compound at a time, as listed above:
O=C(O)c1cccc(CSc2nnc(-c3ccc(Cl)cc3)o2)c1 as listed: motility = 23.4%; motility viability = 5.0
O=S1(=O)N=C(Nc2ccccn2)c2ccccc21 as listed: motility = -19.7%; motility viability = -2.2

(list continues)
Compound,motility,motility viability
O=C(Cc1ccccc1)Nc1ccc(NC(=S)NC(=O)c2ccccc2Br)cc1,3.9%,1.2
CC(C)(C)c1ccc(S(=O)(=O)CCSc2nc3ccccc3s2)cc1,30.2%,6.9
NC(=O)C1CC(=O)N(c2ccc(OCc3c(F)cccc3Cl)cc2)C1 (stereo unspecified),-2.5%,-9.1
COCc1nc2ccccc2n1Cc1ccc(Cl)c(Cl)c1,6.8%,-2.7
COc1ccc(C(=O)c2oc3ccc4c(C)cc(=O)oc4c3c2C)cc1,12.7%,-2.1
Cn1c2c(c(=O)n(C)c1=O)C1(C(=O)Nc3ccc(F)cc31)C(C#N)=C(N)O2 (stereo unspecified),1.8%,1.0
O=C(c1cccs1)c1c[nH]c2ccccc12,20.6%,0.8
CCN(CC)CCCC1(O)c2ccccc2-c2ccccc21,4.1%,-2.2
COc1cc(NC(=S)NC(=O)c2ccc3c(c2)OCCO3)ccc1NC(=O)c1cccs1,-20.9%,-15.2
OC(COc1ccccc1F)CN1CCC(Cc2ccccc2)CC1 (stereo unspecified),10.9%,12.2
COC(=O)CCC(=O)Oc1ccc2ccccc2c1,-9.7%,-4.8
C=C1C2(C(=O)NC(C)c3ccccc3)CCC(C2)C1(C)C (stereo unspecified),-9.8%,-6.7
COc1cc(SC)ccc1C(=O)N1CCC(Cc2ccccc2)CC1,9.8%,25.5
CN1C2=NCCN2C(=O)c2ccccc21,3.1%,-3.6
O=C(Nc1ccccc1C(=O)NC12CC3CC(CC(C3)C1)C2)C(=O)c1c[nH]c2ccccc12,19.5%,7.1
Cc1onc(-c2ccccc2)c1C(=O)N1CCN(S(=O)(=O)c2ccccc2)CC1,18.9%,1.1
CC(C)CSc1ccccc1NC(=O)c1sc2nc(-c3ccncc3)ccc2c1N,-1.0%,-3.0
CC1(C)CC(=O)C2=C(C1)c1c(ccc3ccccc13)NC2c1ccc(N2CCC(Cc3ccccc3)CC2)c([N+](=O)[O-])c1 (stereo unspecified),-12.6%,-4.0
CN(C)C(=O)N1CCC(Cc2ccccc2)CC1,-4.1%,-2.1
O=c1[nH]c(SCc2c(Cl)ccc(Cl)c2Cl)nc2ccccc12,-10.4%,-3.8
CC1(C)Cc2nc3sc4c(=O)n(Cc5ccccc5)cnc4c3cc2CS1,39.4%,16.9
CN1CCC(NC(=O)C2(C)CC2(Cl)Cl)CC1 (stereo unspecified),-0.7%,-2.1
O=C(Nc1nnc(-c2ccc(F)cc2Cl)s1)c1ccco1,0.7%,2.1
O=C1N(Cc2ccccc2)C2CS(=O)(=O)CC2N1Cc1ccccc1 (stereo unspecified),4.9%,-7.3
O=S(=O)(/N=C(/Nc1ccc(S(=O)(=O)Nc2ccccn2)cc1)c1ccccc1)c1ccccc1,-14.4%,-6.1
O=C(Nc1ccc(N2CCOCC2)c2nonc12)C1CCCO1 (stereo unspecified),0.0%,-4.8
COc1cc2c(cc1NC(=O)c1cc3ccccc3oc1=O)oc1ccccc12,-14.3%,-6.4

In the list so far, these have a tert-butyl group.
Compound,motility,motility viability
CCc1ccc(NC(=O)c2ccnc(C(C)(C)C)c2)cc1,5.5%,-1.8
CC(C)(C)c1ccc(S(=O)(=O)CCSc2nc3ccccc3s2)cc1,30.2%,6.9
